CDC25B-CDK2 inh: human CDC25B-CDK2/CyclinA binding inhibition. P30305+P24941. HTRF CDC25B-CDK2/CyclinA binding, anti-His/anti-Flag; active compounds read high. z-score (no concentration beside the values). 94,000 compounds, 0.72% hits;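 also: score is relative to mean and SD of negative controls; strong numbers were not always called active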
TAR Tat displ: HIV-1 TAR-Tat binding disruption; HIV-1 TAR RNA, Tat peptide displacement FRET; active compounds read high; z-score (test concentration not listed); 100,000 compounds, 0.6% hits; AID 1259389;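 also: score is relative to mean and SD of negative controls; some compounds called inactive have numbers as strong as hits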
* = called active by the depositor; . = no result given.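 The calls were made as follows: active = z-score from 3 up in half or more of its runs; inactive = the rest.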

SMILES	CDC25B-CDK2 inh	TAR Tat displ
COc1ccc(Cl)cc1NC(=O)N1CC=C(c2c[nH]c3ccccc23)CC1	.	-6.34
CSc1nc2c(c(=O)[nH]1)C1(CCCC1)Cc1ccccc1-2	-0.8	.
Cn1c(C(=O)NCCC2=CCCCC2)cc2cc(S(=O)(=O)N3CCCCC3)ccc21	.	0.75
Cn1cc(CCCC(=O)NCCC2=CCCCC2)c2ccccc21	.	0.85
Cc1cccc(CSc2nc3c(c(=O)[nH]2)CCCC3)c1	.	1.35
CCOc1ccc(C2c3c(oc4cc(C)cc(C)c4c3=O)C(=O)N2CC2CCCO2)cc1 (stereo not drawn)	2.81	-0.13
CN(C(=O)c1cc2cccc([N+](=O)[O-])c2[nH]1)c1ccccc1Cl	0.54	.
CC1=C(C(=O)Nc2ccc(Cl)cc2)C(c2cccs2)n2nnnc2N1 (stereo not drawn)	0.23	.
COC(=O)C(CCCN1C(=O)c2ccccc2C1=O)(NC(C)=O)c1nnn(C)n1 (stereo not drawn)	-1.63	.
Cc1ccc(C2=NN3C(C2)c2cc(Br)ccc2OC3c2ccncc2)s1 (stereo not drawn)	-0.36	-0.91
COc1cc(C2Nc3ccccc3NC3=C2C(=O)CC(c2ccc(OC)c(OC)c2)C3)ccc1O (stereo not drawn)	0.5	-0.1
Cn1cc(NC(=O)NCCC2=CCCCC2)c2ccccc2c1=O	.	-0.26
Fc1ccccc1N1CCN(Cc2csc3c2CCCC3)CC1	.	1.01
CCN(CC)S(=O)(=O)c1ccc2c(c1)c(=O)c(C(=O)NC1CCCCC1)cn2C	-0.61	.
CC(C)N=C(NC#N)NC(C)C	-2.29	.
CN(Cc1ccccc1)c1ncnc2c1nc1n2CCCCC1	.	0.64
FC(F)(F)c1nnc2sc(-c3ccncc3)nn12	-0.78	1.61
CC1(C)S[C@@H]2[C@H](N=CN3CCCCCC3)C(=O)N2[C@H]1C(=O)O	.	0.99
Cc1c(NC(=O)c2cnn3c(C(F)(F)F)cc(-c4ccccc4)nc23)c(=O)n(-c2ccccc2)n1C	.	0.64
Cc1[nH]c2ccccc2c1C(=O)C(=O)N(C)c1ccccc1	-0.13	-0.5
CCc1ccc(S(=O)(=O)c2cnc3ccccc3c2N2CCOCC2)cc1	-0.62	0.73
CCOC(=O)C1=C(C)NC(=S)NC1c1c(F)cccc1Cl (stereo not drawn)	-2.01	.
O=C(NCC1CCCO1)C(=O)Nc1ccc2nc3n(c(=O)c2c1)CCCCC3 (stereo not drawn)	-1.34	1.98
CCN(c1ccc(F)cc1)S(=O)(=O)c1cc(Br)cc2c1N(C(C)=O)C(C)C2 (stereo not drawn)	-1.62	.
Cc1ccc(C2OC(=O)c3ccccc32)cc1F (stereo not drawn)	0.14	.
Additional records follow.
SMILES	CDC25B-CDK2 inh	TAR Tat displ
O=C(O)c1ccccc1NS(=O)(=O)c1ccc2c3c(cccc13)C(=O)N2	0.66	-0.21
COc1ccc(Br)cc1C1Nc2ccc3ncccc3c2C2=C1C(=O)CCC2 (stereo not drawn)	0.37	-0.96
CC1CCN(Cc2cc(Br)c(O)c3ncccc23)CC1	-2.91	.
COC(=O)c1cccc(N2C(=O)c3ccccc3S2(=O)=O)c1	0.45	-0.69
CSc1ccccc1NC(=O)CN(c1ccccc1)S(=O)(=O)N(C)C	-1.65	1.01
CC1CCCC(NC(=O)C(Cc2ccccc2)NS(=O)(=O)c2ccc3c(c2)CCC(=O)N3)C1C (stereo not drawn)	-2.19	.
Cc1cc(NCc2cccnc2)nc(N)n1	-1.68	.
CC1=C(C(=O)OCC2CCCO2)C(c2ccccc2C)C2=C(CC(C)(C)CC2=O)N1 (stereo not drawn)	-5.53	5.05*
Cc1[nH]c2ccc(NC(=O)c3ccco3)cc2c1C(Nc1ccccn1)c1ccccn1 (stereo not drawn)	1.39	0.77
Cc1cccc(Cl)c1NC(=S)NN	-1.07	.
C[C@H](O)C(=O)C1=Nc2c(nc(N)[nH]c2=O)NC1	-0.45	.
Cn1nnc(NCc2ccc(Br)cc2)n1	.	0.57
COc1ccc(C2c3sc(=O)[nH]c3SC3C4CCC(C4)C23)cc1OC (stereo not drawn)	-1.7	.
COc1ccc(S(=O)(=O)[C@H]2CS(=O)(=O)C[C@@H]2NCCC2=CCCCC2)cc1	-2.59	1.06
CCOC(=O)c1cc(/C(C)=N/Nc2cc(C(F)(F)F)cc(C(F)(F)F)c2)on1	-0.87	.
Cc1nnc2sc(NC(=O)CC(C)C)nn12	-0.64	1.21
CC(=O)/C(N=Nc1ccc2c(c1)OCO2)=C(\C)O	-2.41	.
COC(=O)C1=C(C)NC2=C(C(=O)CC(C)(C)C2)C1c1ccc(OC)c(Br)c1 (stereo not drawn)	0.34	-1.02
Cc1cc(C)nc(Nc2nc(C)c3ccccc3n2)n1	1.35	.
COc1cc(C2C(C(=O)OC(C)C)=C(C)Nc3nc4ccccc4n32)ccc1O (stereo not drawn)	0.54	-2.04
O=C(Nc1ccn([C@H]2CC[C@@H](CO)O2)c(=O)n1)c1ccccc1	-2.47	.
COc1ccc(-c2nc(NCCCN3CCCC3)c3ccccc3n2)cc1	.	0.83
O=c1[nH]c(SCCc2ccccc2)nc2c1CCCC2	-0.79	0.89
CC1(C)Cc2c(c(N3CCOCC3)nc3sc4c(=O)n(-c5ccccn5)cnc4c23)CO1	-0.29	1.61
CC(C)CC(NC(=O)Cc1ccsc1)C(=O)NN (stereo not drawn)	0.22	.
(continued)
SMILES	CDC25B-CDK2 inh	TAR Tat displ
CCOC(=O)N1CCN(C(=O)c2cc3sccc3n2C)CC1	-1.69	1.55
CC1(C)Cc2c(sc3[nH]c(=O)n(CC(=O)NCCOCCO)c(=O)c23)CO1	-1.35	-0.83
COc1ccc(-c2onc(C)c2C)cc1S(=O)(=O)Nc1cc(C)ccc1C	.	0.69
Cc1ccc(-c2onc(C)c2C)cc1S(=O)(=O)NCCC1=CCCCC1	.	2.17
C=CCc1cccc(C2N(C)c3ccccc3N2C)c1O	-1.41	1.81
COC(=O)c1ccccc1NS(=O)(=O)c1cc(S(=O)(=O)Nc2ccccc2C(=O)OC)c2cccc3c2c1NC3=O	-5.64	.
O=C(c1cc(-c2ccc(Cl)cc2)on1)N(Cc1ccc(F)cc1)C1CCS(=O)(=O)C1 (stereo not drawn)	-2.15	2.77
CS(=O)(=O)Nc1cc(-c2nnc(Nc3ccccc3)c3ccccc23)ccc1N1CCOCC1	-1.26	-0.02
O=S(=O)(Cc1ccccc1F)c1oc(-c2ccc(F)cc2)nc1S(=O)(=O)c1ccccc1	-4.58	1.66
O=C(Nc1ccc(N2CCCCC2)cc1)Nc1ccccc1OC(F)(F)F	-1.02	.
O=S(=O)(c1ccc(Cl)cc1)c1cnc2ccc(F)cc2c1N1CCCC1	-0.38	0.26
O=C(NCC(c1ccco1)S(=O)(=O)c1ccc(F)cc1)c1ccc2c(c1)OCO2 (stereo not drawn)	.	0.47
CCOC(=O)c1nc(N(C)c2ccccc2)c2ccccc2n1	.	-0.08
COc1ccc(N2C(=O)CC(Sc3ncccc3C(=O)O)C2=O)cc1 (stereo not drawn)	-2.1	0.66
C=CCn1c2ccccc2c2nnc(SCC(=O)c3ccccc3)nc21	0.52	-0.46
CCOC(=O)c1sc(N2C(=O)c3oc4ccccc4c(=O)c3C2c2ccc(O)cc2)nc1C (stereo not drawn)	1.18	0.14
CC(=O)[C@@]1(O)CCC2C3C=C(Cl)C4=CC(=O)[C@@H]5CC5[C@]4(C)C3CC[C@@]21C (stereo partly drawn)	.	0.32
COc1ccc(-c2noc(N3CCN(c4cc(C)ccc4C)CC3)n2)cc1	-1.18	1.57
COc1cc(OC)cc(-c2nc(-c3ccc(C)s3)no2)c1	.	0.99
CCOC=Nc1c(C(=O)OCC)sc2nc(SC)ncc12	-1.49	.
CC(C)c1ccc(CNc2nc(-c3ccco3)nn2S(=O)(=O)c2ccccc2)cc1	1.56	0.95
Cn1cc(NC(=O)NCCCN2CCCC2)c2ccccc2c1=O	.	0.89
O=C(Nc1ccc2oc(-c3c(F)c(F)c(F)c(F)c3F)nc2c1)c1ccccc1F	-2.38	.
Cc1cccc2c1Oc1[nH]c(-c3ccccc3O)nc(=S)c1C2	-0.99	-1.09
COc1ccc(-c2nc(C#N)c(NCCCN3CCOCC3)o2)cc1	-1.11	0.12

Single records, as listed above. Values in the order: CDC25B-CDK2 inh | TAR Tat displ
`COc1cc(C2C(C(=O)OC(C)C)=C(C)Nc3nc4ccccc4n32)ccc1O` (stereo not drawn) is entered as 0.54 | -2.04
`CCOC=Nc1c(C(=O)OCC)sc2nc(SC)ncc12` is entered as -1.49 | .
`COc1ccc(-c2onc(C)c2C)cc1S(=O)(=O)Nc1cc(C)ccc1C` is entered as . | 0.69
`FC(F)(F)c1nnc2sc(-c3ccncc3)nn12` is entered as -0.78 | 1.61
`CS(=O)(=O)Nc1cc(-c2nnc(Nc3ccccc3)c3ccccc23)ccc1N1CCOCC1` is entered as -1.26 | -0.02

Other records
SMILES	CDC25B-CDK2 inh	TAR Tat displ
COC(=O)c1cccc2c1NC(c1ccc(Br)cc1)C1CC=CC21 (stereo not drawn)	-0.12	-6.01
Clc1ccccc1[C@@H]1Nc2ccccc2[C@@H]2C=CC[C@@H]21	0.06	.
CC1=C(c2ccc(C(C)C)cc2)S(=O)(=O)NC1=NCCc1c[nH]c2ccccc12	-0.18	-2.37
CC1=NN(C(=O)C2c3ccccc3Oc3ccccc32)C(O)(C(F)F)C1 (stereo not drawn)	-0.3	.
CCOc1ccc(-n2c(SCC(N)=O)nc3sc4c(c3c2=O)CCN(C(C)=O)C4)cc1	-1.05	0.35
O=c1c2cc3c(cc2[nH]c(=S)n1C1CCCC1)OCO3	-1.46	.
CCCS(=O)(=O)N1CCN(c2cc(N(C)C)nc(C)n2)CC1	-0.57	0.36
CC1CC(=O)Nc2cc(S(=O)(=O)Nc3nc4ccc(Cl)cc4s3)ccc2S1 (stereo not drawn)	.	0.72
O=C(NC1CCCCC1)N1c2ccccc2Sc2ccccc21	1.39	1.27
Nc1c(-c2nc(-c3ccccc3)no2)nnn1-c1cccc(F)c1	-0.47	-0.75
O=C1C(Cc2nc3ccccc3c(=O)n2CCCO)c2ccccc2N1Cc1ccccc1 (stereo not drawn)	-0.82	2.03
NC(N)=NC(N)=Nc1cc(C(F)(F)F)ccc1Cl	0.08	.
Cc1cc2c(s1)CCc1cc(C(=O)NCCCN3CCCC3)sc1-2	.	1.78
Cc1c(NS(=O)(=O)c2ccc(C3CCCCC3)cc2)c(-n2cnnc2)nn1C	-2.24	3.08
Cc1ccc(CN2CCC(CNC(=O)Nc3cc(C)cc(C)c3)C2)cc1 (stereo not drawn)	-2.35	-1.36
CSc1nsc(SC)c1C#N	-1.54	.
O=[N+]([O-])c1ccc(Oc2cccnc2)nc1	-0.8	.
CC1=CC(C)(C)N(C(=O)NC2CCCCC2)c2ccc(C)cc21	0.44	1.3
CCCCN(C)CCCn1cnc2c([nH]c3ccc(Cl)cc32)c1=O	-0.7	2.57
CCOC(=O)c1ccc2c(c1)NC(=O)CO2	.	2.67
CCCC1(O)CC(C(=O)OC)=NN1C(=O)c1ccccc1 (stereo not drawn)	0.02	.
CCOc1ccc(-c2cn(-c3ccc(OC)cc3)c(=S)[nH]2)cc1	-0.55	.
CCCCC(=O)Oc1ccc(-n2cnnn2)cc1	-0.91	-1.09
O=C(CSCSCC(=O)NCc1ccccc1)NCc1ccccc1	-1.9	.
CCc1ccc(-c2ncnn2-c2ccc(Cl)cc2)cc1	-0.27	-1.56
(more compounds)
SMILES	CDC25B-CDK2 inh	TAR Tat displ
COC(CNC(=O)COc1ccc(Cl)cc1Cl)OC	-1.46	.
CC(C)CC(NS(=O)(=O)c1ccc2[nH]c(=O)ccc2c1)C(=O)N1CCC(C)CC1 (stereo not drawn)	.	2.26
CCc1ccc(Nc2cc(C)nc3nc(-c4ccco4)nn23)cc1	.	0.9
O=C(Cn1cnc2c(nnn2Cc2ccc(Cl)cc2)c1=O)N1CCCC1	-0.15	2.12
COC(=O)c1ccc(C2c3c(-c4ccccc4O)n[nH]c3C(=O)N2Cc2ccncc2)cc1 (stereo not drawn)	0.56	-0.41
O=C(Cn1cc(Br)c(=O)n(CC(=O)Nc2ccccn2)c1=O)Nc1ccccn1	-2.97	.
Cc1ccc(CNc2nc(N(C)C)nc3c2cnn3C)cc1	.	2.25
Cc1cc(C(F)(F)F)nn1Cc1ccc(C(=O)O)cc1	-0.63	0.83
O=C(COc1ccccc1Cl)Nc1ccc(OCc2cc(=O)n3[nH]cnc3n2)cc1	.	2.29
Oc1c(C(Nc2ccccc2Cl)c2ccccn2)ccc2cccnc12 (stereo not drawn)	0.8	-0.05
CN1CCN(c2nc(N3CCCC3)c3cnn(C)c3n2)CC1	.	0.6
CCOC(=O)N1CCN(c2cc(NC3CCCCC3)c3c4c(onc24)-c2ccccc2C3=O)CC1	-1.45	1.05
Cc1c(C(=O)NCCN2CCOCC2)sc2nc3n(c(=O)c12)CCCC3	.	1.08
O=C(Cn1cnc2nc3c(cc2c1=O)CCCC3)NC1CCCCC1	-3.33	-1.2
C=CCn1c(=O)oc2ccc(C(=O)Nc3nccs3)cc21	.	1.41
Cn1c2c(c(=O)n(C)c1=O)CN(C1CC1)CN2	-1.38	.

Reformatted: 6 of the compounds above.
compound,CDC25B-CDK2 inh,TAR Tat displ
O=C(Cn1cnc2nc3c(cc2c1=O)CCCC3)NC1CCCCC1,-3.33,-1.2
CC(C)CC(NS(=O)(=O)c1ccc2[nH]c(=O)ccc2c1)C(=O)N1CCC(C)CC1 (stereo not drawn),.,2.26
COC(=O)c1ccc(C2c3c(-c4ccccc4O)n[nH]c3C(=O)N2Cc2ccncc2)cc1 (stereo not drawn),0.56,-0.41
Cc1cc(C(F)(F)F)nn1Cc1ccc(C(=O)O)cc1,-0.63,0.83
Cc1c(C(=O)NCCN2CCOCC2)sc2nc3n(c(=O)c12)CCCC3,.,1.08
Cc1ccc(CNc2nc(N(C)C)nc3c2cnn3C)cc1,.,2.25

From PubChem

Random draw from the library (roughly 0.97% active in at least one column).
